# High-throughput results from PubChem BioAssay.
# A1 inh – inhibitors of the anti-apoptotic protein A1, read as caspase activation. MEF A1-2A-BIM cells, Caspase-Glo 3/7 luminescence, 3 h; percent of clofoctol response, vehicle zero. caspase activation, % (test concentration not listed). hit rate 0.066% among 330,000;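 active = over half of replicate activation scores above 10%, or exactly half above 10 with the replicate mean above 10; inconclusive = replicate mean below 10 yet half the replicates above 10; inactive = over half of replicates below 10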;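 also: wells of about 30 µL received 50 nL stock; many hits fall short of the cut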
# RanGTP-Imp inh – inhibitors of RanGTP-importin-beta interaction, primary screen, biochemical, FRET, CFP-Ran, YFP-importin-beta, homogeneous. inhibition, % (concentration not given with the values). cell-free CFP-Ran/YFP-importin-beta FRET ratio. hit rate 1.1% among 300,000;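 active = most replicates above 15%; inconclusive = exactly half above 15%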;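 also: 0% = DMSO wells and 100% = Ran loaded with GDP instead of GTP; wells of about 40 µL received 100 nL stock; the first replicate is given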
# T cruzi repl – blocks replication of Trypanosoma cruzi; T. cruzi beta-gal in NIH3T3, luminescence, 90 h; inhibition, % (test concentration not listed); hit rate 1.4% among 300,000;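 active = mean inhibition across valid replicates above about 55%, limit read from the data; inconclusive = mean below that limit but half or more replicates reach it; inactive = mean below it, under half of replicates reach it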;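 also: signal also drops with host cell toxicity which is not excluded here; 0% = plate median of DMSO wells and 100% = zero luminescence signal; higher percent means less beta-gal luminescence so fewer parasites; stock transfer was 50 nL into about 50 µL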
# Calb FLC – affects C. albicans growth with fluconazole | C. albicans CaCi-2 (fluconazole-resistant clinical isolate) + fluconazole, Alamar Blue growth, 48 h | growth inhibition, % (no concentration beside the values) | hit rate 0.57% among 300,000;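 active = most replicates above 75%; inconclusive = exactly half above 75%; inactive = most below 75%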;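 also: all wells also contain fluconazole at 8 µg/ml as a sub-toxic cotreatment; 0% = median of DMSO wells and 100% = median of geldanamycin control wells; wells of about 8 µL received 7.5 nL stock; the first replicate is given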
# Vif A3G – HIV-1 Vif–A3G interaction blockers – biochemical, TR-FRET, GST-Vif 1-94, biotin-A3G peptide, dose response retest, primary screen (AID 1117319); hit rate 0.57% among 260,000; inhibition, %; hits with a dose series show IC50 in µM; TR-FRET GST-Vif / biotin-A3G peptide binding; higher % means a stronger effect; test concentration not given here; strong numbers were not always called active;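 active = above the screen mean plus three standard deviations and confirmed in dose response; inconclusive = results disagree or hit not tested in dose response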;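 also: Vif residues 1-94 fused to GST binding biotinylated APOBEC3G peptide 110-148; 0% = full assay without inhibitor and 100% = GST in place of GST-Vif; retest series ran down from 100 µM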
# Beta cell apopt – beta cell apoptosis inhibition; INS-1E cytokine-induced death, ATP luminescence, 48 h; percent of positive-control rescue, neutral wells zero; protection from apoptosis, % (test concentration not listed); hit rate 0.8% among 300,000; AID 435005;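 active = all replicates at 75% or more, or half of them and the mean; inconclusive = half reach 75% but not the mean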;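 also: 0% = cytokine-treated negative control wells and 100% = positive control rescue; higher means more ATP so stronger rescue from cytokine killing; wells of about 40 µL received 100 nL stock; the first replicate is given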
# AF4-AF9 inh – MLL-AF4/AF9 protein interaction inhibition. P42568. AlphaScreen, biotin-AF4 peptide binding to FLAG-AF9. inhibition, % at 10 µM. hit rate 0.47% among 350,000. AID 651704;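 active = every replicate reaching a set inhibition limit, whatever the replicate mean, cut at about 25% in these data; inconclusive = mean inhibition reaches that limit but some replicates miss it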;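 also: 0% = plate neutral control median and 100% = total signal loss; the record names both 10 and 1 µM as test concentration; the first replicate is given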
# Target sequence (P42568 whole entry, looked up): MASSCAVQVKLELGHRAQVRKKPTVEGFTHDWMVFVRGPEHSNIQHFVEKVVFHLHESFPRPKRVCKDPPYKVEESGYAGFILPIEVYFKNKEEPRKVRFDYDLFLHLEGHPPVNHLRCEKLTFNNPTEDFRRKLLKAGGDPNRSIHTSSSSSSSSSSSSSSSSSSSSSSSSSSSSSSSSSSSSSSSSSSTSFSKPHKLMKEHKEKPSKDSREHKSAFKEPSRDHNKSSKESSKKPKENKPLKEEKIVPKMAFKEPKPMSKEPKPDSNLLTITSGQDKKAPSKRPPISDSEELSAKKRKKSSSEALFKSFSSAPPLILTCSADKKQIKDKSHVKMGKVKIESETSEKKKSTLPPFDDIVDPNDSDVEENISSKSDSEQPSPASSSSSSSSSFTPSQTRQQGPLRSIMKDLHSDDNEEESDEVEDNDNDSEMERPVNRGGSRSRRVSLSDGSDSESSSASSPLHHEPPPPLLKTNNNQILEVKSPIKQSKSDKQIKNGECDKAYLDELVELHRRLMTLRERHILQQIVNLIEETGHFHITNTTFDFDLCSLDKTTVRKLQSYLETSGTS
# LANA-H2B inh – blocks KSHV LANA binding to histone H2A/H2B; Q9QR71; cell-free LANA-H2A/H2B peptide, fluorescence polarization; inhibition, % (no concentration beside the values); hit rate 0.6% among 320,000; AID 2629; in the data active = inhibition mostly above about 10%, no sharp cut-off; inactive = mostly below about 6.7%;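 also: stock transfer was 7.5 nL into about 10 µL; 0% = median of vehicle wells and 100% = median of positive control wells; one replicate is shown; the record names a cut of 25% in any replicate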
# Numbers without * were called inactive; u = inconclusive; x = no result given.
SMILES,A1 inh,RanGTP-Imp inh,T cruzi repl,Calb FLC,Vif A3G,Beta cell apopt,AF4-AF9 inh,LANA-H2B inh
CN(C)c1ccc(S(=O)(=O)N(C)C)cc1[N+](=O)[O-],4.0,-1.3,-4,-8,-9%,-4,-1.8,0.0
Cc1nn(C)c(Oc2cccc(Cl)c2)c1C=O,-0.9,4.3,-26,13,4%,-8,x,2.6
Cc1ccsc1/C=C1\CCc2ccccc2C1=O,-7.6,-2.0,-4,-2,4%,25,x,-3.7
COc1ccccc1C(=O)NCC(=O)NCc1cc(=O)n(C)c(=O)n1C,0.1,1.6,-5,-13,x,-4,-1.0,-0.6
Cc1ccc(S(=O)(=O)N2CCCCC2CCNC(=O)C(=O)NCc2ccncc2)cc1 (stereo not given),0.4,-0.2,1,-4,-2%,22,-11,-2.0
c1ccc(-n2cccc2CNC2CCCCC2)cc1,0.9,u,-13,-10,-2%,-6,x,-5.2
Cc1ccc(N=Nc2c(O)[nH]c(=O)[nH]c2=O)cc1S(=O)(=O)Nc1ccc(Br)cc1,-1.0,x,x,x,0%,0,1.6,3.9
CN(Cc1ccccc1)C(=O)Cn1c(=O)oc2cc(S(=O)(=O)NCc3ccccc3)ccc21,-0.4,5.4,7,1,1%,1,-3.5,1.2
O=C(O)c1ccc(N=NNc2cccc([N+](=O)[O-])c2)cc1,-9.0,4.0,1,19,1%,-4,0.8,3.2
COC(=O)C1(C)CC1(c1ccccc1)c1ccccc1 (stereo not given),1.3,3.5,-1,-4,-2%,-5,0.3,1.8
Cc1cccn2c(=O)c3cc(C(=O)NCc4ccco4)c(=N)n(C4CCCCC4)c3nc12,-0.2,130*,34,-19,x,15,x,1.4
CC(C)C(=O)Nc1cccc(NC(=S)NC(=O)c2ccc([N+](=O)[O-])cc2)c1,-5.1,0.4,-8,11,2%,-6,x,0.6
C/C(=C\C(=O)c1ccccc1)NNc1nc2ccccc2s1,2.9,7.7,1,x,1%,1,x,-0.7
CCOc1cc(CNC2CCCC2)c(Cl)cc1OCC(=O)Nc1ccccc1,-0.8,-3.4,30,-30,x,-2,0.9,-0.7
NC(=S)Nc1cc2ccccc2c2ccccc12,-0.6,-1.2,-19,-3,u,0,x,5.7
O=S(=O)(c1ccc(-c2csc(-c3cccnc3)n2)cc1)N1CCCC1,-0.5,u,14,u,20%,3,x,4.5
CCOc1ccc(-c2nc(S(=O)(=O)c3ccccc3)c(NC)o2)cc1,-1.5,-2.7,-8,0,-3%,-5,-0.9,-4.6
Cc1cc(C(=O)Nc2ccccc2N2CCOCC2)no1,0.6,x,x,x,x,-4,-78,0.4
COc1ccc(NC(=O)CSc2ccc3nnc(-c4cccnc4)n3n2)c(OC)c1,0.3,-1.1,-11,-26,-2%,5,1.3,-5.3
Cc1ccccc1Cn1cc(NC(=O)c2nc3ncccn3n2)cn1,0.3,-2.3,-35,12,6%,1,x,-0.6
O=S(=O)(c1ccc(F)c(F)c1)N1CCN(Cc2ccc3c(c2)OCO3)CC1,-1.0,2.5,9,18,12%,-4,x,2.8
CCN(CC)S(=O)(=O)c1ccc(N2CCOCC2)c(NC(=O)Cc2ccccc2)c1,2.0,0.6,15,-9,x,4,x,0.3
Cc1ncc(CN2CCC(n3nccc3NC(=O)c3ccccc3)CC2)s1,0.0,0.9,22,3,x,-5,-0.4,1.7
CC1(C)NC(=O)N(CC(O)CN(Cc2ccccc2)Cc2ccccc2)C1=O (stereo not given),-0.2,0.5,4,2,1%,-1,x,1.5
O=C(O)CSc1nnc(-c2ccccc2)c(-c2ccccc2)n1,-0.3,1.5,-7,9,11%,0,1.2,-3.6

# The final 6 records of the part above come first, to join the parts:
SMILES,A1 inh,RanGTP-Imp inh,T cruzi repl,Calb FLC,Vif A3G,Beta cell apopt,AF4-AF9 inh,LANA-H2B inh
Cc1ccccc1Cn1cc(NC(=O)c2nc3ncccn3n2)cn1,0.3,-2.3,-35,12,6%,1,x,-0.6
O=S(=O)(c1ccc(F)c(F)c1)N1CCN(Cc2ccc3c(c2)OCO3)CC1,-1.0,2.5,9,18,12%,-4,x,2.8
CCN(CC)S(=O)(=O)c1ccc(N2CCOCC2)c(NC(=O)Cc2ccccc2)c1,2.0,0.6,15,-9,x,4,x,0.3
Cc1ncc(CN2CCC(n3nccc3NC(=O)c3ccccc3)CC2)s1,0.0,0.9,22,3,x,-5,-0.4,1.7
CC1(C)NC(=O)N(CC(O)CN(Cc2ccccc2)Cc2ccccc2)C1=O (stereo not given),-0.2,0.5,4,2,1%,-1,x,1.5
O=C(O)CSc1nnc(-c2ccccc2)c(-c2ccccc2)n1,-0.3,1.5,-7,9,11%,0,1.2,-3.6
O=C1c2ccc([N+](=O)[O-])cc2C(=O)N1c1ccc(Cl)cn1,-0.1,2.7,0,-3,x,-5,0.8,0.7
CC(C)(C)OC(=O)N1CCN(C(=O)c2[nH]cnc2C(=O)NCC(=O)OCc2ccccc2)CC1,1.9,0.8,-26,-3,x,0,-2.6,-0.4
Cc1ccc(N2C(=O)N(Cc3ccccc3C)c3ccccc3S2(=O)=O)cc1,1.2,0.5,18,-5,25%,0,x,-3.8
Cc1n[nH]c(C)c1S(=O)(=O)N1CCCC(C(=O)NCc2ccc(F)cc2)C1 (stereo not given),0.7,-1.1,-5,4,8%,x,-1.4,-2.2
Cc1ccc(NC(=O)CSc2nnc(CNC(=O)c3ccco3)n2C)cc1,0.1,3.1,6,0,-3%,x,-0.1,2.4
O=c1c([N+](=O)[O-])c(N2CCCC2)c2ccccc2n1-c1ccccc1,-0.4,-1.5,2,1,6%,-3,-2.4,-5.4
CC(Cc1cccs1)NC(=O)Nc1ccc(Cl)cc1 (stereo not given),-1.0,2.6,4,-27,-1%,-1,x,-0.3
Cc1sc(NC(=O)c2ccccc2)c(C(=O)NCCN(C)C)c1C,0.1,3.8,43,-4,>100µM*,10,x,2.2
O=C(Cc1ccon1)c1ccc(O)cc1O,-1.6,-1.3,7,-4,-2%,2,-0.1,3.4
Oc1ccccc1-c1nc(NCc2ccccc2)c2ccccc2n1,-0.9,-2.6,11,-14,-27%,-5,-3.4,-0.2
O=C(CN1C(=O)c2ccccc2C1=O)NCc1ccc(C(=O)O)cc1,-0.6,3.6,-5,3,-5%,-4,1.6,0.5
CCN1CCCC1CNC(=O)c1c(O)c2c([nH]c1=O)CCCC2 (stereo not given),-0.2,-0.8,8,-23,0%,2,x,4.3
O=C(NC(Cc1ccccc1)C(=O)O)/C(=C\c1cccc([N+](=O)[O-])c1)NC(=O)c1ccco1 (stereo not given),0.1,5.4,-3,-5,x,-4,2.3,4.0
CCN(CC)C(=O)c1oc2ccc(S(=O)(=O)N3CC(C)CC(C)C3)cc2c1C (stereo not given),-0.4,-4.6,20,-2,x,63,u,1.1
O=P(O)(O)c1ccccc1OCc1ccccc1,-0.1,2.0,-12,-3,10%,-6,x,x
CC(C)CCOC(=O)C1C2C=CC3(CN(Cc4cccs4)C(=O)C13)O2 (stereo not given),0.6,-6.2,-1,-5,6%,0,3.7,0.1
N#Cc1cccc(NC(=O)CN2C(=O)NC(Cc3ccccc3)C2=O)c1 (stereo not given),0.2,3.4,-12,-2,x,-4,-14,4.1
CC1(C)CC(=O)C(C=NCCN2CCN(C(=S)Nc3ccc(F)cc3)CC2)=C(O)C1,0.4,0.6,-42,-3,5%,1,x,0.8
Cc1cc(C(=O)Nc2ccc(C(=O)O)cc2)c(C)o1,0.1,-2.7,-11,2,x,-4,0.0,1.2
COc1ccc(S(=O)(=O)ON=C2CC(C)(C)N(C(C)=O)C(C)(C)C2)cc1,0.1,0.3,-19,0,u,-5,-1.3,-1.4
CCn1c(=O)n(CC)c2cc(S(=O)(=O)N3CCc4ccccc43)ccc21,0.1,-3.7,0,-11,-6%,0,x,0.0
CC(=O)Nc1cc2cc(NS(=O)(=O)c3ccc(Cl)cc3)ccc2oc1=O,0.0,-0.8,8,-12,-1%,2,-0.9,1.1
COc1ccc(CCCc2nnc(SCc3nc4ccccc4c(=O)[nH]3)n2C)cc1C,0.9,4.2,8,28,x,-9,8.4,4.4
Cc1nnc(NC(=O)CCC(=O)NCc2cccs2)s1,-0.4,2.9,-8,-9,8%,1,x,3.9
O=C(CSc1nnc(-c2ccco2)n1Cc1ccccc1)OC1CCCCC1,-0.3,u,0,97*,-5%,x,x,6.0

# Copied from the list:
# Result of CCN(CC)C(=O)c1oc2ccc(S(=O)(=O)N3CC(C)CC(C)C3)cc2c1C (stereo not given) in Calb FLC: -2
# Result of Cc1ccc(NC(=O)CSc2nnc(CNC(=O)c3ccco3)n2C)cc1 in AF4-AF9 inh: -0.1

# An excerpt from above, reduced to RanGTP-Imp inh:
canonical_smiles | RanGTP-Imp inh
Cc1n[nH]c(C)c1S(=O)(=O)N1CCCC(C(=O)NCc2ccc(F)cc2)C1 (stereo not given) | -1.1
Cc1ccc(NC(=O)CSc2nnc(CNC(=O)c3ccco3)n2C)cc1 | 3.1
O=c1c([N+](=O)[O-])c(N2CCCC2)c2ccccc2n1-c1ccccc1 | -1.5
CC(Cc1cccs1)NC(=O)Nc1ccc(Cl)cc1 (stereo not given) | 2.6

# Other compounds:
SMILES,A1 inh,RanGTP-Imp inh,T cruzi repl,Calb FLC,Vif A3G,Beta cell apopt,AF4-AF9 inh,LANA-H2B inh
COc1nc(N/N=C/c2cc3c(cc2Br)OCO3)nc(N2CCOCC2)n1,0.3,2.2,8,-9,22%,2,x,-1.1
CC(C)NC(=O)CSc1nc2ccccc2n1-c1ccccc1,0.4,1.5,-2,-2,u,-2,x,2.1
COC(=O)Cc1ccc(NC(=S)NCCCN2CCOCC2)cc1,-1.0,1.3,-19,-28,16%,1,3.3,-2.2
Cc1cccc(C(=O)O/N=C(\N)c2ccc(Br)cc2)c1,-2.6,0.6,2,29,16%,-2,x,4.3
O=C(NCCN1CCCC1)C1CCN(S(=O)(=O)N2CCC3(CC2)OCCO3)CC1,1.8,3.4,-24,-8,1%,-3,3.5,-1.3
O=C(CN1CCCC1)N1CCCc2c1c(=O)oc1ccc(OCc3ccccc3)cc21,-0.1,1.2,10,13,-4%,x,x,-0.2
COc1ccc(-c2cc(C(F)F)n3ncc(C(=O)N4CCCCC4)c3n2)cc1,0.4,4.7,89*,-8,23%,-1,x,1.9
